# Screens as filed in PubChem BioAssay.
# VDR inh: blocks the human vitamin D receptor; P11473; VDR-SRC2-3 peptide fluorescence polarization, 2 h; Potency, µM, for the others: max response, negative = inhibition, hits mostly inhibitors; 0.93% of 400,000 active; AID 504847; active = well fitted inhibition curve with a large enough effect; inconclusive = small, poorly fitted or top-dose-only effect, or another doubt; inactive = no such curve, though single readings can be large or run the other way; also: series mostly up to about 120 µM
# Target sequence (P11473 whole entry, looked up): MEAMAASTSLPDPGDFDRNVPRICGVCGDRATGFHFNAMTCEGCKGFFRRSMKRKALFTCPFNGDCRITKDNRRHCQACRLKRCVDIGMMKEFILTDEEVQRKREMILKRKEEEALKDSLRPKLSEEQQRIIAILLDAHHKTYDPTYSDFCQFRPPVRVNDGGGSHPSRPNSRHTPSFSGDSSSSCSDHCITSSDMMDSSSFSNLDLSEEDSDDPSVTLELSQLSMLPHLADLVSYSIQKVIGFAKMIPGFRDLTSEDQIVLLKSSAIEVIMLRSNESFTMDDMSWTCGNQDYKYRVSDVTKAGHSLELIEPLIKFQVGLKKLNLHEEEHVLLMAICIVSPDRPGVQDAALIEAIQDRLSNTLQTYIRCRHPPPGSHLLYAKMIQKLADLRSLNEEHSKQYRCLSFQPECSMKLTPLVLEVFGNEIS
#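 After 23 nl compound addition and a short centrifugation, plates sat for 2 hours at ambient temperature; polarization of fluorescence then indicated loss of VDR binding to peptide SRC2-3.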
# * = called active by the depositor; ? = inconclusive; & = joins results of further samples. % is scaled to controls: 0 for no effect and ±100 for the full control effect; potency is read from the fitted curve at half-maximal effect. A portion of the library; the hit share may differ from the screen's.
O=C(NCC(=O)N(Cc1ccccc1)C(C(=O)NC1CCCCC1)c1ccco1)c1ccco1 (centres undefined)
  VDR inh = -7%

COc1ccc(C(CNC(=O)c2cncc(Br)c2)N(C)C)cc1 (centres undefined)
  VDR inh = -14%

Cc1cccc(NC(=O)CN2C(=O)CCc3ccccc32)c1C
  VDR inh = 4%

Cc1cc(C(=O)Cn2cnc3cc([N+](=O)[O-])ccc3c2=O)c(C)n1CC1CCCO1 (centres undefined)
  VDR inh = -15%

CC1CCC(NC(=O)C2CC(=O)N(c3ccc(Cl)cc3)C2)CC1 (centres undefined)
  VDR inh = -11%

COc1ccc(OCc2cccc(C(=O)N3CCCC3)c2)cc1
  VDR inh = -6%

COc1ccc(CNC(=O)c2ccc(CSc3nc4ccncc4n3Cc3ccccc3F)cc2)cc1
  VDR inh = -9%

COc1ccc(/C=C/C(=O)OCC(=O)NC2CCCCCCC2)cc1
  VDR inh = 7%

CC1CC(C)C(=NNC(N)=O)C(C(O)CC2CCC(=O)NC2=O)C1 (centres undefined)
  VDR inh = -15%

COc1ccc(NC(=O)c2cccc(N3C(=O)C4C5C=CC(C5)C4C3=O)c2)cc1 (centres undefined)
  VDR inh = 20%

CCOC(=O)c1c(C)[nH]c(C(=O)N2CCN(c3ccc(OC)cc3)CC2)c1C
  VDR inh = 11%

CC(NC(=O)CNC(=O)c1ccco1)c1ccc(S(N)(=O)=O)cc1 (centres undefined)
  VDR inh = 27%

O=[N+]([O-])c1ccc(NC(=S)N2CCOCC2)cc1
  VDR inh = 3%

COc1ccc(N(CC(=O)NCCSc2ccccn2)S(C)(=O)=O)cc1Cl
  VDR inh = 0%

CC(=O)c1cccc(NC(=O)c2ccco2)c1
  VDR inh = -5%

O=C(Nc1cnccn1)Nc1ccccc1F
  VDR inh = 5%

CCOc1ccc(NC(=O)CC(C)S(=O)(=O)c2ccc3c(c2)NC(=O)CO3)cc1 (centres undefined)
  VDR inh = 6%

Cc1cc(F)ccc1S(=O)(=O)Nc1ncnc2sccc12
  VDR inh = -10%

CC(=O)Nc1ccc(/C(C)=N/NC(=O)CN(c2ccccc2Br)S(C)(=O)=O)cc1
  VDR inh = 9%

COc1ccccc1CC(=O)NNC(=O)CN(C)S(=O)(=O)c1ccc(Cl)cc1
  VDR inh = -2%

COc1cccc(CNC(=O)C2CCC(CNc3nc(=S)[nH]c4ccccc34)CC2)c1 (centres undefined)
  VDR inh = -14%

CC(C)(C)OC(=O)N1CCC(NC(=O)c2ncn(Cc3ccccc3)c2C(=O)NC2CCN(C(=O)OC(C)(C)C)CC2)CC1
  VDR inh = -21%

Cc1ccc(NC(=O)CN(C)C(=O)COC(=O)c2oc3ccccc3c2C)cc1
  VDR inh = 0%

COc1ccc(Cn2c(=S)[nH]c3cc(C(=O)N4CCN(c5ccccc5)CC4)ccc3c2=O)cc1
  VDR inh = -4%

COc1ccc(C(=O)NC(=S)Nc2ccc(NC(=O)c3ccco3)cc2)cc1[N+](=O)[O-]
  VDR inh = 14%

CN(Cc1ccccn1)Cc1cn(Cc2ccccc2)nc1-c1ccc2c(c1)OCO2
  VDR inh = -21%

O=C(c1cc2n(n1)C(C(F)(F)F)CC(c1ccco1)N2)N1CCN(c2ccccn2)CC1 (centres undefined)
  VDR inh = 1%

O=C(COC(=O)c1ccncc1)c1ccc(Br)cc1
  VDR inh = -14%

CCSc1ccc([C@@H]2[C@@H]3C(=O)N(CC)C(=O)[C@@H]3[C@]3(C(=O)OC)CCCN23)cc1
  VDR inh = -23%

COc1ccc(C(=O)NC2CCCN(Cc3ccc(Cl)cc3)C2)c(OC)c1 (centres undefined)
  VDR inh = -25%

O=C(Nc1ccccc1)Nc1ccc(Br)cc1F
  VDR inh = -13%

CCOc1ccc(Cl)cc1/C=N/O
  VDR inh = 2%

CCOc1ccc(NC(=O)CSC2=Nc3ccccc3C3=NC(Cc4ccccc4)C(=O)N23)cc1 (centres undefined)
  VDR inh = 3%

CC1(C(=O)NCC2CC2)C=CC2(CCCCC2)N1C(=O)c1ccccc1 (centres undefined)
  VDR inh = 4%

Cc1ccc(OCc2nnc(-c3ccc(Cl)cc3)o2)cc1
  VDR inh = 6%

O=Cc1cn(-c2ccccc2)nc1-c1ccccn1
  VDR inh = 1%

Cc1ccc(C(C)C)c(OCC(=O)Nc2nc3c(s2)CCCC3)c1
  VDR inh = 14%

COC(=O)c1cc(OC)c(OC)cc1NC(=S)Nc1cc(Cl)ccc1OC
  VDR inh = -7%

O=C(NCCc1ccncc1)Nc1ccc(F)cc1
  VDR inh = 16%

CCN(c1ccccc1)S(=O)(=O)c1ccc(OCC(=O)Nc2cc(C)on2)cc1
  VDR inh = 4%

CC(=O)c1ccc(NC(=O)Nc2ccc(S(=O)(=O)N3CCCC3)cc2)cc1
  VDR inh = -3%

Cc1ccccc1-n1nnnc1SCC(N)=O
  VDR inh = 23%

COc1ccc(OC)c(NC(=O)C2CCN(S(=O)(=O)c3cccs3)CC2)c1
  VDR inh = 9%

O=C(CSc1nnnn1-c1ccc(Cl)cc1)NNC(=O)c1ccc([N+](=O)[O-])cc1
  VDR inh = -2%

COc1ccccc1N1CCN(C(=O)CSc2nc3ccccc3[nH]2)CC1
  VDR inh = -6%

CCn1c(SCC(=O)Nc2cccc(OC)c2)nc2c(c1=O)SCC2
  VDR inh = -5%

CCOC(=O)CSC1=C(C#N)C(c2ccc(OC)cc2)C2=C(CC(C)(C)CC2=O)N1 (centres undefined)
  VDR inh = -8%

C=CCc1ccc(OCCOCCOc2ccc(C)cc2[N+](=O)[O-])c(OC)c1
  VDR inh = 3%

O=C(c1cc(Cl)nc2ccccc12)N(Cc1nnc(-c2ccc(Cl)cc2)o1)C1CC1
  VDR inh = 17%

O=C(COC(=O)c1ccc2c(c1)OCO2)Nc1ncc(Cl)cc1Cl
  VDR inh = -2%

CCc1cc2ccc(C)c(C)c2nc1SCC(=O)NNC(=O)c1ccco1
  VDR inh = 5%

COc1cccc(/C=C/c2nc(C#N)c(N3CCCCCC3)o2)c1
  VDR inh = 10%

CN(C)CC1CCCCC1OC(=O)c1ccc(Br)cc1 (centres undefined)
  VDR inh = 10%

O=C(Cn1ccc2cc(S(=O)(=O)N3CCCC3)ccc21)NCCc1ccccc1
  VDR inh = 8%

Cc1ccc(OCCNC(=O)c2cccc(S(=O)(=O)N3CCN(C)CC3)c2)cc1
  VDR inh = -11%

Cc1ccc(S(=O)(=O)c2cnc(-c3ccccc3)[nH]c2=O)cc1
  VDR inh = -5%

Cc1nn(CCO)c2ncc(C(=O)c3cc(Cl)ccc3O)cc12
  VDR inh = -1%

O=C(O)Cc1ccc(-c2ccccc2)cc1
  VDR inh = 11%&4%

O=S(=O)(c1ccccc1)N(CC(O)CN1CCOCC1)c1ccccc1 (centres undefined)
  VDR inh = -7%

CCS(=O)(=O)N1N=C(c2cccs2)CC1c1cc2cc(C)ccc2nc1Cl (centres undefined)
  VDR inh = 16%

CC(C)(C)c1ccc(C(=O)O)c(C(=O)c2ccc(C(=O)O)cc2)c1
  VDR inh = -15%

Cc1cc(N2CCOCC2)nc(NCc2ccccc2)n1
  VDR inh = -4%

CN(C)c1ncc2ncc(=O)n(CCC#N)c2n1
  VDR inh = 3%

O=[N+]([O-])c1ccc(/C=N\N2CCN(c3ccc(Cl)cc3)CC2)cc1
  VDR inh = -8%

COc1ccc(-n2nnc3c(SC(C(C)=O)C(=O)N(C)C)ncnc32)cc1 (centres undefined)
  VDR inh = 7.1µM*

CCN(CCCNC(=O)Cn1ncc2c([nH]c3ccccc32)c1=O)c1cccc(C)c1
  VDR inh = 3%

COc1ccc(N(CC(=O)NCc2ccco2)S(C)(=O)=O)cc1
  VDR inh = 10%

CC(C)(C)CN1CCN(Cc2c[nH]c3ccccc23)CC1CCO (centres undefined)
  VDR inh = -11%

Cc1nc(CNS(=O)(=O)c2cccs2)cs1
  VDR inh = 4%

CCOC(=O)c1c(NC(=O)Cc2cccs2)sc2c1CCCC2
  VDR inh = -11%

Cc1c(C(c2cccc([N+](=O)[O-])c2O)c2c(C)n(C)n(-c3ccccc3)c2=O)c(=O)n(-c2ccccc2)n1C
  VDR inh = 12%

O=C(CCC(=O)N(CC(=O)NC1CCCCC1)c1ccc2c(c1)OCO2)Nc1ccccn1
  VDR inh = -2%

COc1ccc(CNC(=O)C2CCCN2S(=O)(=O)c2ccc(F)cc2)cc1 (centres undefined)
  VDR inh = -7%

COc1cc(CC(=O)Nc2sccc2C(N)=O)cc(OC)c1OC
  VDR inh = -4%

COc1ccc(C(=O)OCC(=O)NC(C)(C)C)cc1[N+](=O)[O-]
  VDR inh = -21%

O=C(CNC(=O)c1ccccc1)Nc1ccsc1C(=O)O
  VDR inh = -13%

COC(=O)[C@@H]1C[C@@]2(Br)c3ccccc3N(S(=O)(=O)c3ccccc3)[C@H]2N1C(=O)OC
  VDR inh = 2%

COc1ccc(-c2nc(C3CCCCC3)no2)cc1OC
  VDR inh = -5%

CCCCCC(=O)NNC(=O)c1ccc(F)cc1
  VDR inh = -21%

O=C(CCNS(=O)(=O)c1ccccc1C(F)(F)F)NCc1ccc2c(c1)OCO2
  VDR inh = 7%

Cc1ccccc1NC(=O)C1CCCN1C(=O)NC1CCCCC1 (centres undefined)
  VDR inh = -7%

O=S(=O)(c1ccc(F)cc1)N1CCN(c2nc(-c3cccs3)nc3cc(Cl)ccc23)CC1
  VDR inh = -20%

CC(C)C(=O)Nc1cc(C(F)(F)F)ccc1N1CCOCC1
  VDR inh = -10%

COC(=O)C1C/C(=N\NS(=O)(=O)c2ccc(C)cc2)c2ccccc2C1 (centres undefined)
  VDR inh = 6%

Cc1ccc(C)c(OCCn2cc(/C=C(\C#N)C(=O)NCc3cccs3)c3ccccc32)c1
  VDR inh = 9%

O=[N+]([O-])c1cccc(-c2ccc(/C=N/NC(=S)NCc3ccco3)o2)c1
  VDR inh = 4%

CCOc1cc(C2/C(=C(/O)c3ccc(S(=O)(=O)N4CCCCC4)cc3)C(=O)C(=O)N2CCOC)ccc1O (centres undefined)
  VDR inh = 12%

CCN1CCN(c2cc3c(cc2F)c(=O)c(S(=O)(=O)c2ccc(OC)cc2)cn3CC)CC1
  VDR inh = 12%

Cc1ccc(NC(=O)CN(C)CC(=O)Nc2ccccc2-c2ccccc2)cc1
  VDR inh = -25%

Cc1ccc(NC(=O)C2=CN3CCS(=O)(=O)N=C3C=C2)cc1
  VDR inh = 3%

O=C(c1cc2cc(Cl)cc(Cl)c2oc1=O)N1CCOCC1
  VDR inh = -7%

CCS(=O)(=O)c1ccc(NC(=O)c2ccccc2Cl)c(O)c1
  VDR inh = 12%

CCOc1ncccc1C(=O)OCC(=O)Nc1ccc2c(c1)CCC2
  VDR inh = -12%

N=c1n(CCO)c2ccccc2n1CCOc1ccccc1
  VDR inh = 2%

CC(C)c1ccc2oc(=O)cc(CN3CCN(c4ccccc4)CC3)c2c1
  VDR inh = -25%

COc1ccccc1NC(=O)COC(=O)/C=C/c1ccc2c(c1)OCO2
  VDR inh = -1%

Cc1cccc(N2C(=O)CC(N3CCOCC3)C2=O)c1 (centres undefined)
  VDR inh = -1%

O=C(CCCN1C(=O)/C(=C/c2ccccc2Cl)SC1=S)Nc1ccccn1
  VDR inh = -14%

COc1ccc(S(=O)(=O)NCC(c2ccc(N(C)C)cc2)N2CCCC2)cc1 (centres undefined)
  VDR inh = 5%

O=C(Nc1cccc(S(=O)(=O)N2CCCCC2)c1)c1ccc(Cl)nc1
  VDR inh = 10%

O=C(O)C1=C[C@@H](C2CCCCC2)C[C@@H](OCc2ccc(CO)cc2)O1
  VDR inh = ?

COc1cccc(CNS(=O)(=O)c2ccc(-c3cc(C(F)(F)F)on3)s2)c1
  VDR inh = 16%

CCN(CC)S(=O)(=O)c1cc(NS(=O)(=O)c2cccc(Cl)c2)ccc1C
  VDR inh = -15%

Cc1cccc2cc(COC(=O)c3ccco3)c(=O)[nH]c12
  VDR inh = 7%

COc1c2ccoc2cc2oc(=O)ccc12
  VDR inh = -11%

Cc1ccc(OCC(=O)NNC(=O)CCC(=O)NCc2ccccc2)cc1
  VDR inh = -5%

COc1cc(C(O)c2nc3ccccc3s2)cc(OC)c1OC (centres undefined)
  VDR inh = 5%

Cc1nc(NC(=O)/C=C/c2ccccc2)sc1C(=O)N1CCCCC1
  VDR inh = -4%

COc1ccc(Cn2nnnc2C(c2ccccc2Cl)N2CCN(C)CC2)cc1 (centres undefined)
  VDR inh = 7%

COc1ccc(Cl)cc1-c1ccc(C(=O)O)s1
  VDR inh = ?

Nc1ncnc2c1ncn2[C@@H]1O[C@H](CNCC(O)CO)[C@@H](O)[C@H]1O (some centres undefined)
  VDR inh = -1%

CN(C)c1ccc(C2CNC(c3ccc(Cl)c([N+](=O)[O-])c3)c3[nH]c4ccccc4c32)cc1 (centres undefined)
  VDR inh = -13%

N#Cc1ccc(NC(=O)c2cccs2)nc1
  VDR inh = 0%

Cc1noc(C)c1COc1ccccc1C(=O)N(C)Cc1ccc(C(C)(C)C)cc1
  VDR inh = -21%

COc1cc(/C(C)=N/NC(=O)C(O)(c2ccccc2)c2ccccc2)ccc1O
  VDR inh = 9%

C=CCc1ccc(OCc2ccc(C(=O)Nc3ccc(NC(C)=O)cc3)o2)c(OC)c1
  VDR inh = 4%&-17%

CC1CN(C(=O)c2cc(S(=O)(=O)N3CCN(c4ccccc4)CC3)ccc2Cl)CC(C)O1 (centres undefined)
  VDR inh = 5%

COc1cccc(Cn2c(=O)c(-c3cccc(C#N)c3)nc3cnc(N4CCN(C)CC4)nc32)c1
  VDR inh = 9%

CC(C)NC(=O)N(C)C[C@H]1Oc2ccc(NS(=O)(=O)c3cccs3)cc2C(=O)N([C@H](C)CO)C[C@@H]1C
  VDR inh = 12%
